Bioassay records (PubChem BioAssay)
PrP UTR inh: suppresses PrP 5' UTR mRNA reporter expression. actives 0.35% (n = 340,000). cell-based PrP 5' UTR mRNA reporter, plate reader. AID 488862. inhibition, % (test concentration not listed);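 active = every replicate at 50% or more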;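 also: 0 = median of the neutral control wells; tested in H4 reporter cells; numbers are from one replicate; inactives centre near -14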
BJeLR lethal: BJeLR cell viability loss. BJeLR (HRASV12) viability, CellTiter-Glo ATP luminescence, 48 h; reference of the scale not given here. actives 0.17% (n = 300,000). inhibition, % (concentration not given with the values);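 active = replicate mean above 50%; inconclusive = above 50% but judged a plate artefact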;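 also: 50 nL library stock added to about 25 µL; numbers are from one replicate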
Sa RN4220 lethal: kills Staphylococcus aureus RN4220 | S. aureus RN4220 growth, OD600, 16 h | inhibition, % (concentration not given with the values) | actives 0.33% (n = 330,000) | AID 1259311;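 active = z-score of -3 or lower and OD600 up to 0.18 on both plates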;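 also: plate controls were untreated cells for no effect and reference antibiotic for full effect; stock transfer was 100 nL into about 80 µL; one replicate is shown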
Sa ugtP lethal: compounds lethal to S. aureus RN4220 ugtP deletion mutant | AID 1259309 | OD600 growth, 16 h; some inactives read as strong as hits | growth inhibition, % (test concentration not listed) | actives 0.54% (n = 330,000);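 active = z-score under -3 and OD600 up to 0.15 on both plates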;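 also: plate controls were untreated wells for no effect and antibiotic for full effect; wells of about 80 µL received 100 nL stock; the first replicate is given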
Autofluor counter: compound fluorescence in toxin protease inhibitor counterscreen; AID 624483; fluorescence intensity (test concentration not listed); compound autofluorescence counterscreen, microsphere flow cytometry; stronger effect = higher value; actives 3.1% (n = 360,000);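 active = at least 3 SD above the mean of all compounds, about 16000 in these data; inconclusive = too few beads counted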;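 also: 100 nL of 1 mM stock went into each well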
Mtb hypoxia rep: Mtb hypoxia fluorescent reporter inhibition | fluorescence inhibition, % (concentration not given with the values) | actives 0.1% (n = 300,000) | M. tuberculosis hypoxia-regulated fluorescent reporter, fluorescence;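 active = 35 to 45% if threefold the growth effect, above 45% if 1.5-fold the growth effect; inactive = the rest, general growth blockers included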;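 also: wells of about 50 µL received 100 nL stock; 0% = vehicle wells and 100% = reference inhibitor wells; whole bacteria with a GFP reporter of the hypoxia response; strong numbers were not always called active; many hits fall short of the cut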
Mtb hypoxia rep growth: also measured in Mtb hypoxia rep; calls as there; growth inhibition, %; measured here: M. tuberculosis growth (absorbance);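 0% = vehicle and 100% = reference antibiotic; read after six days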
An asterisk follows results filed as active; u = inconclusive; x = not tested or not shown.

entry	compound	BJeLR lethal	Sa ugtP lethal	Sa RN4220 lethal	Mtb hypoxia rep growth
1	Cc1ccc(C23OC(=O)C(C)(C)C2OC(=O)C3(C)C)cc1 (stereo not drawn)	5	3	0.6	8
2	CCn1c2ccccc2c2cc(C3C(C#N)=C(C)NC(C)=C3C#N)ccc21	5	-10	0.2	0
3	CC1CCN(C(=O)COC(=O)CCc2c[nH]c3ccccc23)CC1	2	-1	6.3	8
4	CC1(C)CC(=O)C2=C(C1)OC(N)=C(C#N)C21CCN(C(=O)OCc2ccccc2)CC1	-3	2	15	8
5	Cc1ccc(OCC(=O)Nc2nnc(S(=O)(=O)N3CCCCCC3)s2)cc1C	1	-5	-3.3	2
6	CC(C)(C)NC(=O)c1ccc(NC(=O)C2COc3ccccc3O2)cc1 (stereo not drawn)	-13	-4	1.1	12
7	CCOC(=O)N1CCN(C(=O)CSc2nc3c(c(=O)n2-c2ccccc2OC)SCC3)CC1	-3	6	-1.5	x
8	O=C(Nc1cc(-c2ccccc2)nn1C1CCCCC1)c1ccc(Cl)cc1	x	-13	3.6	6
9	CC1(C)CC(NC(=O)c2ccc(Br)o2)CC(C)(C)N1	3	5	0.4	-1
10	CCOC(=O)CCc1c(C)nc(-n2[nH]c(C)c(CCO)c2=O)[nH]c1=O	1	-2	2.6	-6

entry	PrP UTR inh	Mtb hypoxia rep	Autofluor counter
1	-13	16	4131
2	-16	2	8137
3	-9	6	3306
4	-21	-1	11127
5	-9	-6	5138
6	-18	15	3941
7	-7	x	5600
8	-19	10	2945
9	-28	-1	5662
10	-28	-1	4340

(further entries)
entry	compound	BJeLR lethal	Sa ugtP lethal	Sa RN4220 lethal	Mtb hypoxia rep growth
11	COc1ccccc1CNC(=O)CCS(=O)(=O)c1cccc2nonc12	-2	-1	3.8	x
12	O=S(CC(O)COCc1ccc(Cl)cc1)c1ccccn1 (stereo not drawn)	-2	10	2.5	0
13	CCOC(=O)c1cccc(NC(=O)CCS(=O)(=O)c2cccc3nsnc23)c1	-17	8	4.2	7
14	O=C(NC1CCN(Cc2ccccc2)CC1)C1CCN(S(=O)(=O)c2cccc([N+](=O)[O-])c2)CC1	-4	10	4.6	-8
15	CCCC(=O)N1CCN(c2ccc(NC(=O)c3ccc([N+](=O)[O-])o3)cc2Cl)CC1	-9	35	44	x
16	Cc1ccc(CNC(=O)c2ccc(N3CCC4(CC3)CC(c3cccc(Br)c3)=NO4)c(NC(=O)c3cccc(C)c3)c2)cc1	x	-6	6.9	7
17	O=C(Cc1ccc(Br)c2ccccc12)NN=Cc1ccccn1	x	-9	5.7	-14
18	Cc1cccc(NC(=O)CSCC(=O)N(C)Cc2ccc3c(c2)OCCO3)c1	x	8	5.4	9
19	CCOc1ccc(CCNC(=O)C2CCCN(S(C)(=O)=O)C2)cc1OCC (stereo not drawn)	4	1	0.5	8
20	CC(C)CC1NC(C(=O)O)Cc2c1[nH]c1ccccc21 (stereo not drawn)	-3	-1	0.4	20

entry	PrP UTR inh	Mtb hypoxia rep	Autofluor counter
11	-12	x	3916
12	-15	11	21318*
13	-27	8	8679
14	-8	5	3289
15	-61	x	4316
16	-36	8	3904
17	x	-20	x
18	-7	5	4744
19	-31	4	4034
20	5	2	4270

Arranged by molar mass (highest first): part of the list above.
entry	compound	BJeLR lethal	Sa ugtP lethal	Sa RN4220 lethal	Mtb hypoxia rep growth
16	Cc1ccc(CNC(=O)c2ccc(N3CCC4(CC3)CC(c3cccc(Br)c3)=NO4)c(NC(=O)c3cccc(C)c3)c2)cc1	x	-6	6.9	7
15	CCCC(=O)N1CCN(c2ccc(NC(=O)c3ccc([N+](=O)[O-])o3)cc2Cl)CC1	-9	35	44	x
13	CCOC(=O)c1cccc(NC(=O)CCS(=O)(=O)c2cccc3nsnc23)c1	-17	8	4.2	7
19	CCOc1ccc(CCNC(=O)C2CCCN(S(C)(=O)=O)C2)cc1OCC (stereo not drawn)	4	1	0.5	8
17	O=C(Cc1ccc(Br)c2ccccc12)NN=Cc1ccccn1	x	-9	5.7	-14
20	CC(C)CC1NC(C(=O)O)Cc2c1[nH]c1ccccc21 (stereo not drawn)	-3	-1	0.4	20

entry	PrP UTR inh	Mtb hypoxia rep	Autofluor counter
16	-36	8	3904
15	-61	x	4316
13	-27	8	8679
19	-31	4	4034
17	x	-20	x
20	5	2	4270

Remaining list, next part
entry	compound	BJeLR lethal	Sa ugtP lethal	Sa RN4220 lethal	Mtb hypoxia rep growth
21	CN(C)c1ccc(C(=O)OCc2ccc(Br)cc2)cc1	0	33	-0.3	x
22	COC(=O)c1ccccc1NC(=O)NCc1ccccn1	10	4	1.7	13
23	O=C(Nc1ccccc1)c1nn(-c2ccccc2)c(=O)cc1C(F)(F)F	-4	8	0.3	x
24	C=CCn1c(COc2ccc(Cl)cc2)nnc1SCC(=O)NCC(=O)OCC	-8	-9	3.6	7
25	CC1CCCCC1NC(=O)CCS(=O)(=O)c1ccc2c(c1)NC(=O)CS2 (stereo not drawn)	1	8	5.7	5
26	COc1cc(OC)c(N(C)C(=O)c2cn(C)c(=O)c3cc(OC)c(OC)cc23)cc1Cl	-10	7	0.7	-6
27	Cc1ccc(NC(=O)C(=O)c2c(-c3ccccc3)cc3ccccn23)cc1S(=O)(=O)N1CCOCC1	-3	-5	4.0	3
28	CSc1sccc1C=NO	x	-4	2.1	15
29	CC(NC(=O)CCC(=O)c1ccc(F)cc1)C1CC2CCC1C2 (stereo not drawn)	4	3	0.5	6
30	Cc1cc(C(=O)NCc2ccccc2F)c2ccccc2n1	1	-1	6.2	-2

entry	PrP UTR inh	Mtb hypoxia rep	Autofluor counter
21	-29	x	2548
22	-30	7	3849
23	-1	x	2834
24	-25	15	4175
25	-11	-1	5164
26	-20	17	4150
27	-13	11	9146
28	x	16	x
29	-20	14	3933
30	-5	1	4577

Later entries
entry	compound	BJeLR lethal	Sa ugtP lethal	Sa RN4220 lethal	Mtb hypoxia rep growth
31	CN(C(=O)COC(=O)c1nc(-c2ccccc2)n(-c2ccccc2)n1)C1CCS(=O)(=O)C1 (stereo not drawn)	-3	0	-3.6	-7
32	CCC(O)CNC(=O)CCc1nnc(C2(c3ccc(Cl)cc3)CCC2)o1 (stereo not drawn)	-4	-2	3.1	4
33	CCCn1c(=O)c(F)cn(Cc2ccc(OC)c([N+](=O)[O-])c2)c1=O	26	2	2.3	2
34	Cc1c2c(cc3c1[nH]c1ccccc13)C=NCC2	x	-5	1.9	12
35	Cc1c(NC(=O)CC2CC(C)OC2=O)c(=O)n(-c2ccccc2)n1C (stereo not drawn)	7	-11	6.0	6
36	NC(=O)c1ccc(NC(=O)CCc2nc3sc4c(c3c(=O)[nH]2)CCCC4)cc1	-7	4	4.3	7
37	O=C1/C(=C/c2cccs2)N=C(c2cccs2)N1Nc1ccccc1	4	x	x	x
38	O=C(NCc1ccccc1)c1cc(=O)[nH]c2ccccc12	-5	1	-1.7	-4
39	COc1ccc(NC(=O)CCNC(=O)c2ccc([N+](=O)[O-])cc2)cc1S(=O)(=O)N1CCCCC1	x	11	4.7	-10
40	CCOc1ccc(NC(=O)c2ccco2)c([N+](=O)[O-])c1	-4	2	5.6	8

entry	PrP UTR inh	Mtb hypoxia rep	Autofluor counter
31	-13	0	4121
32	5	10	3130
33	-31	4	21734*
34	-33	3	21778*
35	7	10	10665
36	3	5	6766
37	-13	x	3520
38	-11	-5	14859
39	-20	-5	4687
40	-86	8	2149

The listing continues:
entry	compound	BJeLR lethal	Sa ugtP lethal	Sa RN4220 lethal	Mtb hypoxia rep growth
41	COCCCNC(NC(=O)c1ccc(OC)cc1)C(Cl)(Cl)Cl (stereo not drawn)	11	2	4.2	8
42	Cc1ccc(-c2nc(NCC3CCCO3)sc2C)cc1 (stereo not drawn)	-7	10	-0.9	-1
43	COCCNc1nnc(SCC(=O)Nc2nnc(-c3ccccc3)o2)s1	-4	1	4.3	0
44	O=C(COC(=O)c1ccc(O)cc1)Nc1ccc2c(c1)OCO2	x	0	1.1	5
45	NC(=O)C1CCCN(C(=O)c2cccc(S(=O)(=O)N(Cc3ccccc3)c3ccccc3)c2)C1 (stereo not drawn)	x	5	4.3	0
46	O=C(O)CCn1cc(C=NO)c(-c2cccc([N+](=O)[O-])c2)n1	x	2	0.1	5
47	CCOC(=O)C1CCN(C(=O)COC(=O)CSc2ccc(C(N)=O)cc2[N+](=O)[O-])CC1	1	4	2.2	-7
48	COc1ccc(N(C)S(=O)(=O)c2cccc(C(=O)N3CCN(c4cccc(C)c4C)CC3)c2)cc1	x	-17	5.1	10
49	CCn1cc(C(=O)NCCCN2CC(C)CC(C)C2)c(=O)c2cc(S(=O)(=O)N(C)C3CCCCC3)ccc21 (stereo not drawn)	1	2	-0.7	-6
50	CC(C)c1nnc(NC(=O)CCC(=O)N2CCN(C3CCCCC3)CC2)s1	6	1	5.0	7

entry	PrP UTR inh	Mtb hypoxia rep	Autofluor counter
41	-15	6	4539
42	-21	1	4246
43	-23	5	u
44	-19	11	3883
45	1	-7	3875
46	x	0	x
47	-15	5	6377
48	-13	5	3875
49	-1	4	4631
50	-6	-4	7983

Remaining list, next part:
entry	compound	BJeLR lethal	Sa ugtP lethal	Sa RN4220 lethal	Mtb hypoxia rep growth
51	O=C(N/N=C/c1cn[nH]c1-c1ccccc1)c1ccco1	-8	x	x	x
52	Cc1c(NC(=O)CCN2C(=O)c3ccccc3C2=O)c(=O)n(-c2ccccc2)n1C	6	2	4.3	1
53	Cc1ccc(/C=C/C(=O)c2ccc(O)cc2)cc1	-11	x	x	x
54	CCCCNC(=S)NNC(=O)c1cc(-c2ccncc2)nc2ccccc12	8	-8	1.6	11
55	COC(=O)c1scc(C)c1NC(=O)/C=C/C(=O)O	10	3	1.7	12
56	Cc1cc(C)n(CC(=O)NN=Cc2cc(Br)cc([N+](=O)[O-])c2O)n1	x	8	11	-3
57	CCCCN1CC(=O)N2[C@H](c3ccc(Cl)cc3)[C@@H]3C(=O)N(CC)C(=O)[C@@H]3[C@]2(Cc2ccccc2)C1=O	5	x	x	x
58	O=C(N/N=C/c1cccnc1)c1cc(-c2ccccc2)nc2ccccc12	5	x	x	x
59	COc1ccc(OCC(=O)Nc2cccc(C(C)=O)c2)cc1	-18	-13	-5.1	-1
60	NC(=O)CCCn1c(C(=O)c2cc(Cl)c(N)c(Cl)c2)c2ccc(C(F)(F)F)cc2[n+]1[O-]	3	-19	-0.3	20

entry	PrP UTR inh	Mtb hypoxia rep	Autofluor counter
51	-24	x	3322
52	-14	8	3644
53	-56	x	6078
54	-1	-1	5334
55	-14	17	5949
56	x	-3	x
57	-4	x	2840
58	-25	x	3916
59	-4	-1	4006
60	-19	6	4007

New compounds follow
entry	compound	BJeLR lethal	Sa ugtP lethal	Sa RN4220 lethal	Mtb hypoxia rep growth
61	CC1CCCN(S(=O)(=O)c2ccc(NC(=O)CN3C(=O)NC(C)(c4ccccc4)C3=O)cc2)C1 (stereo not drawn)	11	4	0.6	2
62	CCOc1ncccc1C(=O)OCc1ccc([N+](=O)[O-])cc1	x	-12	1.4	1
63	O=C(CN1CCN(Cc2ccc3c(c2)OCO3)CC1)N1CCc2[nH]c3ccccc3c2C1	-1	-8	-17	15
64	COc1ccc(NC(=O)COC(=O)c2ccc(N3CCCC3=O)cc2)cc1	x	2	1.6	2
65	COc1cc2[nH]c(=O)n(Cc3ccc(C(=O)NCCCN4CCN(C)CC4)cc3)c(=O)c2cc1OC	-6	2	3.1	8
66	O=C1CCCCCCCCCCC(=NO)CCCO1	x	-9	2.7	-14
67	Cc1cc(-c2csc(N)n2)c(C)n1Cc1ccco1	4	-3	5.0	6
68	COc1ccc(N2CCN(C(CNS(C)(=O)=O)c3ccco3)CC2)cc1 (stereo not drawn)	-7	8	1.5	10
69	O=C(CSc1ccccc1F)NC(=O)NCc1ccco1	-13	-1	4.5	-5
70	Cc1ccc(S(=O)(=O)N(C)CC(=O)N2CCc3ccccc32)cc1	-3	-13	-5.2	-4
71	CCOC(=O)c1ccc(NC(=O)NCc2ccccn2)cc1	6	5	3.6	3
72	CCOC(=O)c1cnn(-c2nc(CC)nc3sc4c(c23)CCC4)c1N	-7	0	5.3	12
73	CC(C)(C)C1(O)CC(C(F)(F)F)=NN1C(=O)CCCc1ccccc1 (stereo not drawn)	-4	-8	7.3	-8

entry	PrP UTR inh	Mtb hypoxia rep	Autofluor counter
61	-15	10	u
62	-16	2	4554
63	x	0	x
64	-7	4	3823
65	-30	18	4358
66	x	-5	x
67	-15	10	3928
68	-3	-3	2080
69	-14	-6	4755
70	-9	-5	3026
71	-2	12	5761
72	-24	4	2528
73	5	-8	4898
